Bioassay records as filed in PubChem BioAssay.
PrP UTR inh = inhibition of PrP 5' UTR reporter expression; cell-based PrP 5' UTR mRNA reporter, plate reader; actives 0.35% (n = 340,000); inhibition, % (no concentration beside the values); AID 488862, 2010;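 active = every replicate at 50% or more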;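 also: 0 = median of the neutral control wells; tested in H4 reporter cells; numbers are from one replicate; inactives centre near -14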
BJeLR viability = MLPCN primary cell-based screen for lethality selective to Ras in HRASV12 cells; inhibition, % (concentration not given with the values); BJeLR (HRASV12) viability, CellTiter-Glo ATP luminescence, 48 h; reference of the scale not given here; AID 1554, 2009; actives 0.17% (n = 300,000);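 active = replicate mean above 50%; inconclusive = above 50% but judged a plate artefact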;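 also: 50 nL library stock added to about 25 µL; numbers are from one replicate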
Mtb hypoxia inh = PubChem AID 1159583. M. tuberculosis hypoxia-regulated fluorescent reporter, fluorescence. fluorescence inhibition, % (test concentration not listed). actives 0.1% (n = 300,000);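 active = 35 to 45% if threefold the growth effect, above 45% if 1.5-fold the growth effect; inactive = the rest, general growth blockers included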;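 also: wells of about 50 µL received 100 nL stock; 0% = vehicle wells and 100% = reference inhibitor wells; whole bacteria with a GFP reporter of the hypoxia response; strong numbers were not always called active; many hits fall short of the cut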
Autofluor counter = counter-screen for toxin protease inhibitors: compound fluorescence; fluorescence intensity (no concentration beside the values); compound autofluorescence counterscreen, microsphere flow cytometry; hits give high values; AID 624483; actives 3.1% (n = 360,000);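 active = at least 3 SD above the mean of all compounds, about 16000 in these data; inconclusive = too few beads counted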;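 also: 100 nL of 1 mM stock went into each well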
ugtP null kill = growth inhibition of ugtP-null S. aureus, primary screen, RN4220 ugtP deletion, OD600; 16 h; some inactives read as strong as hits; actives 0.54% (n = 330,000); growth inhibition, % (no concentration beside the values); AID 1259309, 2017;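 active = z-score under -3 and OD600 up to 0.15 on both plates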;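 also: plate controls were untreated wells for no effect and antibiotic for full effect; wells of about 80 µL received 100 nL stock; the first replicate is given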
RN4220 kill = growth inhibition of S. aureus RN4220, primary screen, OD600 | actives 0.33% (n = 330,000) | 16 h | inhibition, % (no concentration beside the values);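 active = z-score of -3 or lower and OD600 up to 0.18 on both plates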;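 also: plate controls were untreated cells for no effect and reference antibiotic for full effect; stock transfer was 100 nL into about 80 µL; one replicate is shown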
Mtb hypoxia inh growth = further read-out of Mtb hypoxia inh, marked with its call; growth inhibition, %; measured here: M. tuberculosis growth (absorbance);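 0% = vehicle and 100% = reference antibiotic; read after six days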
An asterisk follows results filed as active; ? = inconclusive; · = not tested or not shown.

SMILES | PrP UTR inh | BJeLR viability | Mtb hypoxia inh | Mtb hypoxia inh growth | Autofluor counter | ugtP null kill | RN4220 kill
O=c1cc(Cc2ccccc2)[nH]c(=S)[nH]1 | -29 | 7 | -9 | -16 | 11042 | 3 | -1.5
N#CC1=C(N)Oc2n[nH]c(-c3cccs3)c2C1c1ccsc1 (centres undefined) | -6 | -9 | 3 | 11 | 2557 | -1 | 0.5
Cc1ccc(NS(=O)(=O)c2cc(C(=O)Nc3cccc(N(C)S(C)(=O)=O)c3)ccc2C)c(C)c1 | -24 | 12 | 6 | 5 | 10202 | 2 | 1.2
CCC(=O)NC1(C(F)(F)F)C(=O)Nc2c1c(=O)[nH]c(=O)n2Cc1ccco1 (centres undefined) | -2 | 0 | 6 | -4 | 3208 | -2 | 3.0
O=C(c1cc(Cl)nc2ccccc12)N1CCN(S(=O)(=O)c2cccc(C(F)(F)F)c2)CC1 | -25 | -3 | 11 | 1 | 4420 | 6 | 1.4
O=C(CC1C(=O)NCCN1Cc1ccccc1C(F)(F)F)NC1CCCC1 (centres undefined) | -26 | 4 | 1 | -4 | 4529 | -1 | -4.0
COc1ccc(OC)c(-c2nc(CN3CCCCC3c3cccnc3)c(C)o2)c1 (centres undefined) | -16 | 3 | -8 | -3 | 6245 | 11 | 4.5
Cc1cccc(NC(=O)COC(=O)c2ccccc2SCC(=O)N2CCCC2)c1 | -8 | -10 | 10 | 7 | 4783 | 4 | 0.4
O=C(O)c1cc(NS(=O)(=O)c2ccc(NCc3ccccc3)c([N+](=O)[O-])c2)cc(C(=O)O)c1 | -20 | 4 | 5 | -6 | 3568 | -5 | 2.6
COc1ccccc1NC(=O)COC(=O)c1ccccc1SCC(=O)N1CCCC1 | -1 | 13 | 2 | -15 | ? | 9 | 5.8
OCCCCNCc1cc(Br)ccc1OCc1ccccc1 | -9 | -16 | 12 | 12 | 4333 | 2 | 3.9
CCCn1c(SCC(=O)N2CCN(c3ccccc3)CC2)nc2ccccc2c1=O | -5 | -9 | -1 | 0 | 16052 | 3 | 0.4
Cc1c(C)c2ccc(OCc3ccc(C(=O)O)o3)c(C)c2oc1=O | 5 | -5 | -5 | -9 | ? | -2 | 2.5
COc1ccc(Cc2nc3ccc(S(N)(=O)=O)cc3[nH]2)cc1OC | · | 0 | 11 | 11 | · | 8 | 3.6
COc1ccc(C(=O)NC2=NCCS2)cc1 | -51 | 9 | 6 | -1 | 4304 | 5 | 0.6
CCN1C(=O)N/C(=C/c2cc(C)n(Cc3ccccc3)c2C)C1=O | -26 | -4 | -10 | 12 | 2089 | 4 | 3.4
O=C(c1cccc([N+](=O)[O-])c1)N1CCCC(C(=O)N2CCCCCC2)C1 (centres undefined) | -25 | -3 | 6 | 0 | · | 6 | 0.4
CCC(C)N(C(=O)Cn1nnc2ccccc21)C(C(=O)Nc1ccc(F)cc1)c1cccc(OC)c1 (centres undefined) | -5 | -2 | 3 | 14 | 5732 | -8 | -1.1
CC1(C)CC(=O)C(C=Nc2ccc(C(=O)c3ccccc3)cc2N=CC2=C(O)CC(C)(C)CC2=O)=C(O)C1 | -22 | 0 | -3 | -2 | 3490 | 4 | 8.2
FC(F)Oc1ccc(NC(=S)NCc2nc3ccccc3[nH]2)cc1 | -45 | -2 | 7 | 0 | 4069 | -7 | 2.1

4 compounds from above with just ugtP null kill:
compound | ugtP null kill
O=C(O)c1cc(NS(=O)(=O)c2ccc(NCc3ccccc3)c([N+](=O)[O-])c2)cc(C(=O)O)c1 | -5
O=C(CC1C(=O)NCCN1Cc1ccccc1C(F)(F)F)NC1CCCC1 (centres undefined) | -1
CCCn1c(SCC(=O)N2CCN(c3ccccc3)CC2)nc2ccccc2c1=O | 3
Cc1cccc(NC(=O)COC(=O)c2ccccc2SCC(=O)N2CCCC2)c1 | 4

Next records follow:
SMILES | PrP UTR inh | BJeLR viability | Mtb hypoxia inh | Mtb hypoxia inh growth | Autofluor counter | ugtP null kill | RN4220 kill
CC(C)C(NC(=O)c1cccs1)C(=O)NC1CCCCC1 (centres undefined) | -25 | 1 | 0 | 4 | 5473 | 6 | 3.0
CCCCNC(=O)N1CCN(c2ccccc2OC)CC1 | -16 | -8 | -2 | -8 | 2552 | 3 | -0.3
CCN(c1ccc(NC(=O)COC(=O)/C=C/c2ccco2)cc1)C(C)C | -1 | · | -11 | 1 | ? | -4 | 2.6
COc1ccc(S(=O)(=O)N2CCCCCC2)cc1NC(=O)c1ccccc1F | 9 | · | 5 | -2 | 6259 | 7 | 20
COc1cc(CC2(CCc3ccncc3)C(=O)NC(=O)NC2=O)cc(OC)c1OC | -21 | 8 | 6 | -2 | 4817 | 2 | 4.0
CCNC(=S)NCC | -20 | · | 7 | 4 | 3389 | 5 | 3.5
Cc1cccc(NC(=S)NNC(=O)c2ccc(O)cc2O)c1C | -17 | -5 | 6 | 3 | 2520 | -6 | -0.7
O=C(O)CC1c2ccccc2S(=O)(=O)N1C1CCCCC1 (centres undefined) | · | · | 3 | 2 | · | 2 | 7.1
N#Cc1cccc(C(c2nnnn2C2CCCC2)N2CCCCCC2)c1 (centres undefined) | -6 | -5 | · | · | 3317 | 6 | 3.1
COc1ccccc1C1CC(c2ccc(NS(C)(=O)=O)cc2)=NN1C(=O)c1ccccc1 (centres undefined) | -22 | -9 | 11 | 4 | 2509 | -10 | 5.9
O=C(OC(C(=O)NCc1ccc(F)cc1)c1ccccc1)c1ccco1 (centres undefined) | -17 | -18 | 9 | 3 | 2979 | 4 | 7.1
C/C(=N\NC(=O)C1COc2ccccc2O1)c1ccc(Cl)s1 (centres undefined) | -22 | -4 | · | · | 4508 | · | ·
CCOC(=O)C1=C(COC(=O)/C=C/c2ccccc2Cl)NC(=O)NC1C (centres undefined) | -13 | 9 | 5 | -1 | 6693 | -4 | 8.0
O=C(c1cccc(N2C(=O)c3ccccc3C2=O)c1)N1CCCC(C(F)(F)F)C1 (centres undefined) | -10 | 8 | 2 | 3 | 6222 | 1 | 3.1
CCCOc1ccc(C=NNC(=O)c2ccc3c(c2)OCO3)c(OCCC)c1 | · | · | -1 | -6 | · | 1 | 3.8
COc1ccccc1CCNC(=O)Cn1ccc2cc(S(=O)(=O)N3CCC(C)CC3)ccc21 | -11 | -15 | 3 | -1 | 5103 | 2 | 2.2
O=C(C1CCN(S(=O)(=O)N2CCCC2)CC1)N1CCCCC1 | -12 | 5 | 9 | 7 | 12930 | 4 | 3.3
Cc1cc(Oc2ccc(C(F)(F)F)cc2[N+](=O)[O-])c2c3c(c(=O)oc2c1)CCCC3 | -5 | 2 | 11 | -1 | 2116 | -8 | 6.2
CC(C)=C1C2CCC1C1C(=O)N(CCc3ccccc3)C(=O)C21 (centres undefined) | -9 | -12 | 7 | 6 | 2624 | 6 | 10.0
Cc1ccccc1NC(=S)NC(=O)C1CCCCC1 | -15 | -9 | 10 | 5 | 5479 | 51 | 2.8
O=C(Nc1ccc(Br)cc1)C1CCN(C(=O)c2ccco2)CC1 | -26 | 3 | -5 | -15 | 4016 | 2 | -1.6
CCn1cc(CN2CCC(n3nccc3NC(=O)Cc3ccccc3)CC2)c(C)n1 | -1 | -1 | 3 | 8 | 6203 | 10 | 2.8
CCOC(=O)c1cc(C#N)c(C)nc1N(CC)CC | -14 | -8 | 5 | 2 | 4162 | 8 | 7.0
COc1ccc(C(C(=O)NC(C)(C)C)N(C(=O)Cn2nnc3ccccc32)c2cccc(C(C)=O)c2)cc1O (centres undefined) | 4 | -10 | -10 | 5 | 4817 | -6 | 3.5
COc1cc(C(=O)OCCN2CCCCC2)ccc1O | -5 | -10 | 19 | 10 | 3864 | 1 | 8.6
CCS(=O)(=O)Nc1cccc(C2=NN(C(C)=O)C(c3cccs3)C2)c1 (centres undefined) | -33 | -4 | 0 | -5 | 3318 | -4 | -0.2
COc1cc(S(=O)(=O)N2CCCCC2)ccc1NC(=O)c1ccncc1 | -5 | 11 | 13 | 5 | 5737 | 0 | 2.6
O=C(/C=C1\NC2(CCCC2)Cc2ccccc21)C(=O)N/N=C/c1ccc(O)c(O)c1 | -2 | -9 | · | · | 1949 | · | ·
COc1cc(NC(=O)CN2c3cccc4cccc(c34)S2(=O)=O)cc(OC)c1OC | -12 | 9 | -5 | 9 | 2442 | 7 | 12
Cc1cc(Cl)cc(C)c1OCCNCc1ccccc1 | 6 | -3 | 10 | 6 | 3834 | 2 | 0.3
COc1ccccc1NC(=O)CNC(=O)Cn1cnc2sc(C)c(C)c2c1=O | -6 | -10 | -4 | -2 | 4613 | 2 | 0.4
CC(C)(C)NC(=O)Cn1c(SCC(=O)NCc2cccs2)nc2ccccc21 | · | -8 | 9 | 5 | 13351 | 3 | 4.1
COc1ccc(O)c(C=NNC(=O)CCC(=O)Nc2ccc(F)cc2)c1 | · | · | 17 | 9 | · | 9 | 2.2
COc1ccc(NC(C)C(=O)NN=Cc2c(O)ccc3ccccc23)cc1 (centres undefined) | · | · | 15 | 5 | · | 2 | 4.4
O=C1c2ccc(Oc3cccc([N+](=O)[O-])c3)cc2C(=O)N1c1ccccn1 | -17 | -7 | 1 | 2 | 2354 | 6 | 1.0
Nn1c(Cc2cccc3ccccc23)nnc1SCc1c(Cl)cccc1Cl | -27 | -12 | 14 | 9 | 2017 | 8 | 5.8
CCOC(=O)C1(CC2CCCCO2)CCN(C(=O)Nc2ccc(C(=O)OC)cc2)CC1 (centres undefined) | 2 | 5 | 5 | -4 | 3439 | 1 | 0.5
CCOC(=O)N1CCN(Cc2ccccc2F)CC1 | -34 | -3 | 4 | 5 | 20462* | 8 | 4.0
Cc1ccccc1-n1nc(C)c2c(C(=O)NN)cc(-c3ccncc3)nc21 | -11 | 7 | 12 | 8 | 3226 | 7 | 0.0
Cc1cc(C)c(S(=O)(=O)N2CCC(C(N)=O)CC2)cc1C | -2 | -9 | 2 | 8 | 10293 | 0 | 0.4

2 neighbouring compounds from above, for reference:
SMILES | PrP UTR inh | BJeLR viability | Mtb hypoxia inh | Mtb hypoxia inh growth | Autofluor counter | ugtP null kill | RN4220 kill
Cc1ccccc1-n1nc(C)c2c(C(=O)NN)cc(-c3ccncc3)nc21 | -11 | 7 | 12 | 8 | 3226 | 7 | 0.0
Cc1cc(C)c(S(=O)(=O)N2CCC(C(N)=O)CC2)cc1C | -2 | -9 | 2 | 8 | 10293 | 0 | 0.4

(more compounds)
SMILES | PrP UTR inh | BJeLR viability | Mtb hypoxia inh | Mtb hypoxia inh growth | Autofluor counter | ugtP null kill | RN4220 kill
Cn1c(SCC(=O)NCC2CCCO2)ncc(C(=O)Nc2ccc(Cl)cc2)c1=O (centres undefined) | -12 | 16 | 7 | 7 | 6019 | 1 | 3.7
COc1cccc(-c2csc(N3CCN(C(=O)Nc4ccc(Cl)cc4)CC3)n2)c1 | -14 | 3 | 0 | 14 | 4496 | -23 | 41
Cc1cccc(NS(=O)(=O)c2ccc3oc(=O)ccc3c2)c1C | 2 | 2 | 1 | 2 | 4452 | -4 | -1.8
CC(=O)Nc1ccc(S(=O)(=O)O)c(OC(C)=O)c1 | -13 | · | 23 | 8 | 3709 | 4 | 3.5
CN(C)CCCN(C(=O)c1cc2cc([N+](=O)[O-])ccc2s1)c1nc2cc3c(cc2s1)OCCO3 | -2 | 38 | · | · | 4389 | · | ·
CCn1c(COc2ccc3c(c2)OCO3)nnc1SCC(=O)O | -28 | -8 | · | · | 5217 | -6 | 2.4
CCOc1ccc2nc(NC(=O)CSc3nnnn3C3CCCCC3)sc2c1 | -8 | -2 | 3 | -6 | 9524 | -15 | -2.2
CN(C)C(=O)c1cc(C(=O)c2ccc(F)cc2C(F)(F)F)c[nH]1 | · | 11 | -3 | -6 | 3163 | -1 | 2.5
COc1ccc(-n2nc(C(=O)NCC(=O)N3CCC4(CC3)OCCO4)c3ccccc3c2=O)c(OC)c1 | -7 | -4 | -4 | 3 | 3818 | -3 | 0.0
O=C(NC(=S)Nc1ncccn1)c1ccccc1Cl | -32 | 4 | 11 | 3 | 6920 | 12 | 0.9
CC(=O)Nc1ccc(NC(=O)CNS(=O)(=O)c2ccc(C)cc2)cc1 | -10 | -7 | 13 | 4 | 8266 | -1 | 6.2

Whole records, quoted from the list. Values in the order: PrP UTR inh, BJeLR viability, Mtb hypoxia inh, Mtb hypoxia inh growth, Autofluor counter, ugtP null kill, RN4220 kill
O=C(c1cc(Cl)nc2ccccc12)N1CCN(S(=O)(=O)c2cccc(C(F)(F)F)c2)CC1 reads -25, -3, 11, 1, 4420, 6, 1.4
O=C(O)CC1c2ccccc2S(=O)(=O)N1C1CCCCC1 (centres undefined) reads ·, ·, 3, 2, ·, 2, 7.1
Cc1cccc(NS(=O)(=O)c2ccc3oc(=O)ccc3c2)c1C reads 2, 2, 1, 2, 4452, -4, -1.8
